# Calb biofilm kill: clotrimazole potentiators killing C. albicans biofilm, primary screen, 4-compound mixtures | C. albicans biofilm persisters + clotrimazole, fluorescence viability; primary screen in compound mixtures of four per well | inhibition, % at 7.6 µM | 0.02% of 120,000 active | AID 1242, 2008;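 active means inhibition above 30.3% in the primary screen of four-compound pools, then above 30% when the compound was retested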;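 further: compounds exposed to preformed 24 h biofilms for 48 h; the number belongs to the whole pool; some results filed as inactive read as strong as hits; inactives centre near 12; 0% = biofilm with clotrimazole alone and 100% = kill control; retested singly at about 60 µM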
#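 System: C. albicans CAF4-2 wild-type biofilms; Medium: RPMI/MOPS medium, pH 7.0; Reagent: Clotrimazole, 50 µg/mL; Times: biofilm formation 24 h, compound exposure 48 h, 37 °C; Detection: 2-h Alamar Blue fluorescence, 535/590 nm excitation/emission; Evaluation: percent inhibition of biofilm viability.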
# The depositor's hits bear a star. Only part of the results is shown; the hit share may differ from the screen's.
SMILES,Calb biofilm kill
CC1CCCCC1NC(=O)/C=C/c1nc2ccccc2s1 (stereo not given),-6
CC1CN=C2C(C(=O)Nc3ccccc3)=C(O)CC(c3ccccc3)N21 (stereo not given),19
Cc1c(Nc2nc(-c3cccc([N+](=O)[O-])c3)cs2)c(=O)n(-c2ccccc2)n1C,14
O=C(c1cnsn1)N1CCC(CO)(Cc2cccc(F)c2)CC1,5
Cc1sc2c(c1C)c(=O)n(-c1ccc(Cl)cc1)c(=O)n2Cc1cc(=O)n2ccccc2n1,8
O=C(Nc1ccc2c(c1)CCC2)c1ccccc1F,5
C=CCn1c(CNC(=O)c2ccccc2F)nnc1SCc1nc2ccccc2c(=O)[nH]1,2
Cc1nc(-c2cc(-c3nc(-c4ccc(C(F)(F)F)cc4)no3)no2)cs1,17
NS(=O)(=O)c1ccc(NC(=S)NC(=O)c2ccc(-c3ccccc3)cc2)cc1,-9
COC(=O)c1cc2c(ccn2-c2ccc(F)cc2)n1CC(=O)OC(C)C,3
COc1cc(C(=O)N/N=C/c2cc([N+](=O)[O-])cs2)cc(OC)c1OC,7
O=C(Cn1nc2n(c1=O)-c1ccccc1SC2)N/N=C/c1cccnc1,17
CN(Cc1ccccc1)C(=O)c1[nH]cnc1C(=O)N[C@@H](Cc1ccccc1)C(=O)OCc1ccccc1,19
Cc1cccc(NC(=O)c2ccc(S(=O)(=O)N3CCOCC3)cc2)n1,1
CCOC(=O)c1cnc(SCCN2CCOCC2)nc1N,9
COC(=O)CSc1nnc(CNS(=O)(=O)c2ccc(Br)cc2)n1C,19
COc1ccc(CNC(=O)c2ccc(C(C)C)cc2)cc1,17
COc1ccc(NC(=O)CSc2nnc(Cn3cnc4ccccc43)n2C)cc1,15
CCOc1cc(N2CCOCC2)c(OCC)cc1NC(=O)COC(=O)c1cc2ccccc2cc1O,17
COC(=O)c1ccc(C(NC(=O)OCc2ccccc2)/C(C)=C/[C@@H](C)C(=O)NCc2ccc(OC)c(OC)c2)cc1 (stereo not given in full),18
Cc1nn(-c2ccccc2)c(N2CCCC2)c1/C=N/NC(=O)c1cc(-c2cccnc2)nc2ccccc12,18
COc1ccc(CCCC(=O)NCc2ccccc2)cc1C,7
COc1ccccc1N1C(=O)C2C(C(=O)c3ccccc3)=NN(c3ccc(C)cc3)C2C1=O (stereo not given),24
NC(=O)c1ccc(NC(=O)Cc2csc(-c3ccccc3)n2)cc1,27
CC(C(=O)N1CCCC1)c1ccc([N+](=O)[O-])cc1 (stereo not given),-7
COc1ccc(S(=O)(=O)Nc2ccccc2OC)cc1NC(=O)Cc1cccs1,15
CC(=O)Nc1ccc(NC(=O)COC(=O)c2ccccn2)cc1,20
COc1cc(SC)ccc1C(=O)N1CCN(c2ccccc2)CC1,10
Cc1ccc(CN(C)CC(=O)Nc2ccc3c(c2)CCC3)cc1,9
Nc1ccc2c3c(cccc13)C(=O)N(c1ccccc1)C2=O,13
Cc1nc(N)nc(Cl)c1Cc1ccc(Cl)cc1,20
CCCCC1(C(=O)OCC)CC(CSC(=N)N)OC1=O (stereo not given),7
COc1ccc(NC(=O)Nc2ccc(F)cc2F)cc1,16
COc1ccccc1Oc1ccc(N/C=C2/CCCC2=O)cc1,12
OCCN1CNC(=S)NC1,13
O=C(N/N=C1\CCSc2ccc(F)cc21)c1cccnc1,1
Cc1ccc(C)c(OCC(=O)Nc2cc(C(=O)O)cc(C(=O)O)c2)c1,-9
COc1ccc(/C(C)=N\NC(=O)C(c2ccncc2)N2CCOCC2)cc1 (stereo not given),13
COc1ccc(/C=C2\SC(=O)N(CC(=O)NCCC(C)C)C2=O)cc1OC,13
CSc1cccc(NC(=O)C(C)C)c1,-33
Cc1ccc(NC(=O)c2cc(C(C)(C)C)nn2Cc2ccccc2)cc1,13
Cn1c(N)c(C(=O)COC(=O)CN2C(=O)c3ccccc3C2=O)c(=O)n(C)c1=O,17
CCOC(=O)C1=C(O)C(=O)N(Cc2cccnc2)C1c1ccc(OC)cc1 (stereo not given),-2
O=C(/C=C/c1ccco1)Nc1scc(-c2ccccc2)c1C(=O)O,28
CC(C)CN(C(=O)CN1CCOCC1)c1c(N)n(CC(C)C)c(=O)[nH]c1=O,29
COc1ccccc1/C=N/NC(=O)c1ccccc1Cl,-1
C=CCNCCOc1ccccc1-c1ccccc1,20
COCCn1c(SC(C)C(=O)Nc2ccc(Cl)cn2)nnc1-c1ccncc1 (stereo not given),16
COc1ccc(CCNC(=O)CSc2nc3[nH]ncc3c(=O)[nH]2)cc1OC,14
CCOC(=O)C1=C(CN2CCSCC2)NC(=O)NC1c1cccc([N+](=O)[O-])c1 (stereo not given),14
CC(NC(=O)c1ccc(F)cc1)c1ccc(F)cc1 (stereo not given),7
O=C(N/N=C/c1ccccn1)C12CC3CC(CC(C3)C1)C2,4
CC1CCC2(CC1)NC(=O)N(Cc1cccc(C(F)(F)F)c1)C2=O (stereo not given),0
Cc1nccn1CC(=O)N/N=C/c1cc(Br)cs1,22
Cc1cnc(C(=O)OCC(=O)NC2CCCCCCC2)cn1,7
CCOC(=O)Cc1csc(NC(=O)C(C)c2ccc([N+](=O)[O-])cc2)n1 (stereo not given),-4
CCc1ccc(Nc2nnc(SCC(=O)N(C)C3CCS(=O)(=O)C3)s2)cc1 (stereo not given),10
COc1ccc(/C=C/C(=O)N[C@H](C(=O)O)C(C)C)cc1,14
Cc1ccc(SCCC(=O)OCC(=O)Nc2ccc(S(N)(=O)=O)cc2)cc1,14
C[n+]1cccc(/C=N/Nc2nc(Cl)c(C#N)c(Cl)c2Cl)c1,25

# Later entries.
SMILES,Calb biofilm kill
O=C(Nc1ccccc1F)c1ccc(Br)o1,9
CC1CCN(S(=O)(=O)c2cccc(C(=O)Oc3ccc([N+](=O)[O-])cc3)c2)CC1,16
CC(=O)N1CCN(C(=O)c2ccc(Oc3ccccc3)cc2)CC1,19
NC(=O)NNC1=Nc2cccc3cccc1c23,11
Cc1c(/C=N/O)sc2ccccc12,28
Cc1cccc(NC(=O)CC2c3ccccc3Oc3ccccc32)c1,-5
CCOC(=O)N1CCN(C(=O)CSCC(=O)Nc2nc(-c3cccs3)cs2)CC1,17
Cc1nn(Cc2nnc(SCC(=O)Nc3cccc(C(F)(F)F)c3)n2C)c(C)c1[N+](=O)[O-],15
COc1ccc(CCc2nnc(CCC(=O)NCc3cnn(-c4ccccc4C)c3)o2)cc1,-14
COC(=O)c1c(C)[nH]c(O)c1C=Nc1ccc(C#N)cc1,6
COCCN1C=C2C(=O)C(C)(OC(=O)CCC(=O)OC)C(=O)C=C2C=C1C1CC1 (stereo not given),16
COc1c(Cl)cc(Cl)cc1CNCc1ccccc1,0
CCC1CCC(c2nnc(-c3ccc(Br)cc3)o2)CC1 (stereo not given),17
Cc1ccc(C(=O)C[n+]2ccc(Cc3ccccc3)cc2)cc1,9
COCCn1cnnc1SCC(=O)Nc1cccc(S(=O)(=O)N2CCCCCC2)c1,-7
CCOC(=O)c1sc(-c2ccc(F)cc2)cc1NC(=O)Nc1ccccc1OC,20
Cc1ccc(C(=O)C2Oc3ccccc3C3CC(c4ccc(C)cc4)=NN23)cc1 (stereo not given),14
COc1ccc2[nH]c3c(=O)n(Cc4ccc(C(=O)N5CCC(C(N)=O)CC5)cc4)c(=S)[nH]c3c2c1,2
Cc1ccc2c(c1)c(=O)c(Br)c(C)n2Cc1ccccc1,22
COc1ccc2[nH]c(=O)c(CN(CCO)S(=O)(=O)c3ccc(C)cc3)cc2c1,8
CNC(=S)N(Cc1cc2cc(C)cc(C)c2[nH]c1=O)C1CCCC1,28
NC(=O)CC[C@@H]1NC(=O)[C@H](Cc2ccccc2)NC(=O)[C@H](Cc2ccc(O)cc2)NC(=O)[C@@H](N)CSSC[C@@H](C(=O)N2CCC[C@H]2C(=O)N[C@@H](CCCN=C(N)N)C(=O)NCC(N)=O)NC(=O)[C@H](CC(N)=O)NC1=O,13
Cc1cc(=S)c2cccc(C)c2[nH]1,13
CSc1ccc(/C=N/N2CCN(Cc3ccccc3)CC2)cc1,17
N#CC(C(=O)NC1CCCCC1)=C1CCCCCC1,-4
Cc1cccc(NC(=O)CS(=O)(=O)c2cn(CC(=O)N3CCOCC3)c3ccccc23)c1,20
Cc1cc(S(=O)(=O)NCc2ccccc2)ccc1OCC(=O)NCC1CCCO1 (stereo not given),5
S=C(Nc1ccc(Cl)cc1)N(CCCN1CCOCC1)Cc1cccs1,13
Cc1ccc(S(=O)(=O)Nc2cc(C(F)(F)F)ccc2N2CCOCC2)c(C)c1,5
CCO[C@@H]1OC(C(=O)NCc2ccccc2)=C[C@H](C(C)(C)C)[C@H]1CCCO,18
Cc1cc(Br)ccc1SCC(=O)OC/C(O)=C(\C#N)c1nc2ccccc2[nH]1,24
Cc1ccc(OCC(=O)c2cc(C)n(-c3ccccc3)c2C)c([N+](=O)[O-])n1,4
NC(=O)/C(=C/c1ccco1)C(N)=S,23
FC(F)(F)COc1ccc(-n2ccnc2)nn1,12
COC(=O)c1ccc(NC(=O)CSC2=NC(=O)C(c3ccccc3)C(=O)N2)cc1 (stereo not given),15
O=C(COc1ccc([N+](=O)[O-])cc1)Nc1cc(C(=O)O)cc(C(=O)O)c1,3
Cc1c(Cl)c(=O)oc2cc(OCC(=O)NCc3cccs3)ccc12,10
Cc1ccc(C(=O)N2CCN(c3ccc(NC(=S)NC(=O)c4cccs4)cc3)CC2)cc1,13
O=C(NCc1ccco1)C(c1ccccc1)N(C(=O)Cc1cccs1)c1cccnc1 (stereo not given),8
O=C1Nc2ccccc2/C1=C/c1cnc(-c2ccccc2)[nH]1,16
O=C(Nc1ccc(-c2cn3ccccc3n2)cc1)c1ccco1,14
O=S(=O)(Cc1ccccc1)NCC1CCCN(Cc2ccc(F)c(F)c2)C1 (stereo not given),16
Cn1nc(C(=O)OCc2ccc(F)cc2)c2ccccc2c1=O,15
C=C1SC(Nc2c(C)cccc2C)=NC12CCCCC2,17
COc1ccc(-c2nsc3c(SCc4ccccc4)ncnc23)cc1,6
O=C(O)CN1CCN(c2ncc(C(F)(F)F)cc2Cl)CC1,-4
Cc1ccc(OCCn2cnc3cc([N+](=O)[O-])ccc3c2=O)cc1,8
COc1ccc(NS(=O)(=O)CC(C)C)c(OC)c1,9
Cc1cc(Cl)ccc1NC(=S)N1CCN(Cc2ccccc2)CC1,19
CCCNc1nc(C)cc(-c2cc(C(=O)NCc3ccccc3)on2)n1,-1
CCOc1ccccc1C(=O)NCC(=O)OCc1c(C)noc1C,12
Cc1cc(C)nc(NS(=O)(=O)c2ccc(NC(=O)c3ccc(S(=O)(=O)N4CC(C)OC(C)C4)cc3)cc2)n1 (stereo not given),18
CCOC(=O)c1cc2c(ccn2C)n1CC(=O)N(Cc1ccccc1)c1ccccc1,17
NC(=O)CSc1nnc(-c2ccc3c(c2)OCO3)o1,10
Cc1nc(N)nc(N)c1/C=C/C(C)(C)c1ccc(Cl)cc1,5
CNC(=O)COc1ccc(Cl)c2cccnc12,14
COc1ccc(/C=N/NC(=O)c2ccc(N)cc2)cc1Cn1cc([N+](=O)[O-])cn1,-1
O=C(CSc1ccc(-c2ccco2)nn1)Nc1ccccc1,16
CN(C(=O)COC(=O)c1ccc2c(=O)n3c(nc2c1)CCC3)C1CCS(=O)(=O)C1 (stereo not given),-21
Cc1c(N=C2N=C(NC(=O)c3cccs3)c3ccccc32)c(=O)n(-c2ccccc2)n1C,-10

# Additional entries:
SMILES,Calb biofilm kill
CN1CCS/C1=C/C=C1/SC(=S)N(Cc2ccccc2)C1=O,10
OC(COc1ccccc1)CN1CCN(Cc2ccc3c(c2)OCO3)CC1 (stereo not given),16
CC1CCCN(CCCNC(=O)c2cc3c(Cl)nc4ccccc4c3s2)C1 (stereo not given),15
CCOC(=O)CNC(=O)CSc1cc(C)nc2ccc(OC)cc12,10
COc1cc(/C=C2\SC(=Nc3ccc(F)cc3)N(c3ccc(F)cc3)C2=O)ccc1OCC(=O)O,25
O=C(N/N=C\c1cccnc1)c1cc(-c2ccc(Cl)s2)[nH]n1,9
